Compound activity (PubChem)
FPRL1 ligand = ligands of human FPRL1, also counter-screen for FPR ligands. inhibition, %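 (tested at 6.7 µM)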. AID 441. 0.3% of 24,000 active. FPRL1-expressing cells, fluorescent ligand binding inhibition, flow cytometry. P25090;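 note: 0% = buffer alone and 100% = receptor blocker peptide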
Target sequence (P25090 whole entry, looked up): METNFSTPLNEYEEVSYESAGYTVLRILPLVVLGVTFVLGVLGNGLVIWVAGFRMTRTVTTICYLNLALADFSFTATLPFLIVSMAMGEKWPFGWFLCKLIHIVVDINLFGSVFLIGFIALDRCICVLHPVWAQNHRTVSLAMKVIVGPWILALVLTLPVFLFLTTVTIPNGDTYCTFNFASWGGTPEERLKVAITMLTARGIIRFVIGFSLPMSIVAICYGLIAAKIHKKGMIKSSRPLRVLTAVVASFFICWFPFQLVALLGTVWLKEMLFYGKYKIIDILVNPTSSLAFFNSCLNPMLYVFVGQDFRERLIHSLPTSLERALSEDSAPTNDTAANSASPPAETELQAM
VCAM-1 down = inhibitors of TNFa-induced VCAM-1 surface display, cell-based, plate reader, pooled HUVEC, TNFa stimulus (AID 454). inhibition, % at 5 µM. HUVEC TNFa-induced VCAM-1 surface immunofluorescence, plate reader; numbers were filed only for top-ranked candidate wells. 0.2% of 10,000 active;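 active = compound among top-ranked inhibitors of TNF-induced VCAM-1 adhesion protein staining, with the hit upheld by image or statistical review; inactive = the rest, including hits rejected on review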;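 note: 0% = TNFa with vehicle and 100% = cells without TNFa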
VCAM-1 imaging = suppression of endothelial VCAM-1 upregulation – imaging, high-content imaging, pooled HUVEC, TNFa stimulus (AID 456). HUVEC TNFa-induced VCAM-1 surface expression, immunofluorescence imaging; numbers were filed only for top-ranked candidate wells. inhibition, % at 5 µM, or IC50 in µM where a hit was titrated. 0.2% of 10,000 active;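 active = top tenth filtered wells with inhibition above zero that passed visual or statistical confirmation; inactive = the rest, including hits rejected on review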;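 note: 0% = stimulated vehicle wells and 100% = unstimulated cells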
VCAM-1 augmentation = enhancers of VCAM-1 display on endothelial cells, imaging, high-content imaging, pooled HUVEC, TNFa stimulus (AID 457). 0.2% of 10,000 active. calls only. Pooled HUVEC, TNFa-induced VCAM-1 immunofluorescence imaging; hits of this screen are not shown here;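 active = a top-ranked rise in VCAM-1 staining upheld on image or statistical review; inactive = the rest, including candidates rejected on review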;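 note: compounds tested at 5 µM in the well; cells exposed to compound for 24 hours before fixing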
FPR binder = human FPR ligand, with FPRL1 counter-screen. P21462. FPR-expressing cells, fluorescent ligand binding, flow cytometry. inhibition, %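 (tested at 6.7 µM)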. 0.74% of 24,000 active;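 note: 0% = buffer wells and 100% = receptor blocker peptide wells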
Target sequence (P21462 whole entry, looked up): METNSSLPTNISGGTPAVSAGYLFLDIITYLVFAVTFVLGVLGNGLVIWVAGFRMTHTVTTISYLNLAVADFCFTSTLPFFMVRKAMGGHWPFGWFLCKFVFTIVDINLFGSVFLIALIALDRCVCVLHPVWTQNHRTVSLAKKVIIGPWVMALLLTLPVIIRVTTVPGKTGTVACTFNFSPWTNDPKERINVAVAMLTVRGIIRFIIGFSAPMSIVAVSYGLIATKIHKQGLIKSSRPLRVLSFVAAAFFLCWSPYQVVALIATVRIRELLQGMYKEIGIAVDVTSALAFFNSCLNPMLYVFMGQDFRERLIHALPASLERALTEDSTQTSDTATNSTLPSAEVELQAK
Starred values were filed as active, the others as inactive; i = inactive; / = no result given.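 Rule for the calls, unless noted: active = mean above 30%; inconclusive = self-fluorescent; inactive = the rest.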 The list is partial, so the mix of outcomes need not match the whole.

SMILES	FPRL1 ligand	VCAM-1 down	VCAM-1 imaging	VCAM-1 augmentation	FPR binder
Cc1cc(N2C(=O)C(=O)/C(=C(/O)c3ccc(Cl)cc3)C2c2cccc(Br)c2)no1 (stereo not drawn)	-2	/	/	/	3
CN(C)/C=C1\C=C(c2ccccc2)OC1=O	-1	/	/	/	-2
Cc1nc2ccccc2c2oc(C(=O)N3CCN(C4CCCCC4)CC3)cc12	-1	/	/	/	-6
COc1cccc2cc(C(C)N(CCCN3CCOCC3)C(=O)Nc3ccccc3)oc12 (stereo not drawn)	-3	/	/	/	-9
CCOc1ccc(OCC)c(NC(=O)C2COc3ccccc3O2)c1 (stereo not drawn)	-3	/	/	/	3
O=C(NCc1ccc(F)cc1)C1CCC(=O)N1CCc1ccccc1 (stereo not drawn)	2	/	/	/	-7
COc1ccccc1CN1CC(C(=O)NCc2cccnc2)CC1=O (stereo not drawn)	1	i	i	i	2
Cc1cc(Nc2ccc(C(C)C)cc2)n2ncnc2n1	-5	/	/	/	0
CCN(CC)S(=O)(=O)N1CCC(C(=O)NC2CCCC2)CC1	1	/	/	/	-2
CN1CCN(CCCNC(=O)c2ccc3c(c2)N(Cc2ccccc2)CCS3)CC1	-1	/	/	/	8
CCCc1[nH]nc2c1C(/C(C)=C/c1ccccc1)C(C#N)=C(N)O2 (stereo not drawn)	0	/	/	/	3
CC(=O)N1C(=O)C(=C2C=C(C)OC(C)=C2)c2ccccc21	1	/	/	/	-6
COCCN1C(=O)c2oc3ccccc3c(=O)c2C1c1cccc(O)c1 (stereo not drawn)	-3	/	/	/	2
COc1ccc(C(O)C(CC(=O)NCCCOC(C)C)C(=O)NCCCOC(C)C)cc1OC (stereo not drawn)	-1	/	/	/	3
CCN(CC)S(=O)(=O)c1ccc2c(c1)c(=O)c(C(=O)NCCOC)cn2C	0	i	i	i	3
COCCn1c(COc2ccc(Cl)cc2)nnc1SCC(N)=O	0	i	i	i	1
COc1cc(C(=O)Oc2c(CN3CCOCC3)cc(Cl)c3cccnc23)cc(OC)c1OC	-4	/	/	/	-8
O=C(Nc1ccccc1C(=O)N1CCOCC1)c1ccncc1	0	i	i	i	0
COc1ccc(C)cc1NC(=O)C1CCCN1S(=O)(=O)c1ccc2c(c1)CCC(=O)N2 (stereo not drawn)	0	/	/	/	1
c1ccc(CN2C3=NCCCN3c3ccccc32)cc1	-2	i	i	i	-2
COc1cccc(C2=NOC(C(=O)NCc3ccccc3)C2)c1 (stereo not drawn)	-1	/	/	/	6
Cc1cccc(NC(=O)C2CCN(S(=O)(=O)c3cccs3)CC2)n1	-18	/	/	/	-4
NC(=O)c1cccc(S(=O)(=O)N2CC(c3ccccc3)CC2=O)c1 (stereo not drawn)	2	/	/	/	5
Cc1occc1C(=O)Nc1nn[nH]n1	-9	/	/	/	-7
COc1ccccc1Nc1nc(N)nc(CN2CCOCC2)n1	2	/	/	/	1
CN(C(=O)c1ccncc1)C1CC(C)(C)N(O)C(C)(C)C1	6	i	i	i	-5
O=C(NC1CCCCC1)c1ccc(Cn2cc(Br)cn2)o1	-2	/	/	/	-2
Cc1[nH]c2ccc(F)cc2c(=O)c1SC(F)(F)C(F)F	-7	/	/	/	1
Cc1nc(C)n(C(C)CC(=O)O)n1 (stereo not drawn)	0	i	i	i	-16
COc1cccc(NC(=O)n2nc(N)cc2-c2ccc(Cl)cc2)c1	8	/	/	/	-5
Cc1ccc2c(CNCc3ccco3)cc(=O)oc2c1	0	i	i	i	-2
CCOC(=O)c1cc(NC(=O)C2C3CCC(O3)C2C(=O)O)cc(C(=O)OCC)c1 (stereo not drawn)	15	/	/	/	2
COc1cccc(C(=O)n2cnnc2N)c1OC	-8	i	i	i	-2
CC(=O)Nc1c(Cl)n(C(C)=O)c2ccccc12	2	i	i	i	0
Cn1c(Cn2c(=O)sc3ccccc32)nnc1SCC(=O)Nc1cccc(Cl)c1	3	/	/	/	4
Cc1coc(NC(=O)CSc2nc(-c3ccncc3)cc(C(F)(F)F)c2C#N)n1	0	i	i	i	-6

Structural class, the compounds so far containing two or more sulfur atoms (2)
SMILES	FPRL1 ligand	VCAM-1 down	VCAM-1 imaging	VCAM-1 augmentation	FPR binder
Cc1cccc(NC(=O)C2CCN(S(=O)(=O)c3cccs3)CC2)n1	-18	/	/	/	-4
Cn1c(Cn2c(=O)sc3ccccc32)nnc1SCC(=O)Nc1cccc(Cl)c1	3	/	/	/	4

Ordered by heavy-atom count (smallest number first): part of the list above.
SMILES	FPRL1 ligand	VCAM-1 down	VCAM-1 imaging	VCAM-1 augmentation	FPR binder
CC(=O)Nc1c(Cl)n(C(C)=O)c2ccccc12	2	i	i	i	0
COc1cccc(C(=O)n2cnnc2N)c1OC	-8	i	i	i	-2
Cc1ccc2c(CNCc3ccco3)cc(=O)oc2c1	0	i	i	i	-2
O=C(NC1CCCCC1)c1ccc(Cn2cc(Br)cn2)o1	-2	/	/	/	-2
COc1ccccc1Nc1nc(N)nc(CN2CCOCC2)n1	2	/	/	/	1
CCOC(=O)c1cc(NC(=O)C2C3CCC(O3)C2C(=O)O)cc(C(=O)OCC)c1 (stereo not drawn)	15	/	/	/	2

(more compounds)
SMILES	FPRL1 ligand	VCAM-1 down	VCAM-1 imaging	VCAM-1 augmentation	FPR binder
COC(=O)Cc1c(C)nc2nc(-c3ccco3)[nH]n2c1=O	2	i	i	i	6
Cn1c(Cn2c(=O)sc3ccccc32)nnc1SCC(=O)Nc1cccc(F)c1	1	/	/	/	3
O=C(Nc1ccc(F)cc1F)N1CCN(C/C=C/c2ccccc2)CC1	1	/	/	/	-6
Cn1c(=O)cc(OCCCC(=O)Nc2ccc3c(c2)OCCO3)c2ccccc21	1	i	i	i	-5
O=C(NCc1ccccn1)C1CCN(S(=O)(=O)N2CCCCC2)CC1	-2	/	/	/	-1
CCOc1ccc(-c2nc(=S)[nH][nH]2)cc1	3	/	/	/	1
N#CC1=C(N)Oc2cc(Nc3ccccc3)ccc2C1c1ccncc1 (stereo not drawn)	-5	/	/	/	-28
COC(=O)c1cn(-c2ccccc2)nc1C(=O)OC	-7	i	i	i	1
CCCCNC(=O)c1c[nH]c2ccc(S(=O)(=O)Nc3ccc(OCC)cc3)cc2c1=O	4	/	/	/	-4
CC(C(=O)NCc1ccco1)n1nc(-c2ccccc2)c2cc(Cl)ccc21 (stereo not drawn)	-12	/	/	/	-8
COc1cccc(N2C(=O)C3ON(c4ccccc4)C(c4cccs4)C3C2=O)c1 (stereo not drawn)	-3	/	/	/	39*
CC(C)c1cc(C(=O)Nc2cccnc2)no1	2	i	i	i	-4
COc1ccc(S(=O)(=O)N(C)C2CCN(C)CC2)cc1	-6	i	i	i	-3
C=CCc1cccc2cc(C(=O)NCc3cccnc3)c(=O)oc12	4	i	i	i	0
COc1ccc(OC)c(C(=O)CSc2nc3ncccc3[nH]2)c1	8	i	i	i	-6
CC1CCN(c2nc(-c3ccccc3)c(C#N)c(=O)[nH]2)CC1	1	/	/	/	35*
COC(=O)c1cc(O)c(OCc2ccccc2)c(O)c1	4	i	i	i	2
COc1ccc(-n2ccnc2SCC(=O)Nc2ccccc2)cc1	11	/	/	/	2
CCSc1nnc(NC(=O)c2ccc(C)o2)s1	-12	i	i	i	-16
CN(CC(=O)NCCN1CCN(Cc2ccccc2)CC1)S(=O)(=O)c1cccc2nsnc12	-1	/	/	/	2
CC(C)CCCNc1nc(N2CCOCC2)nc(N2CCOCC2)n1	-1	/	/	/	2
CCOC(=O)N1CCN(C(=O)c2csc3c2CCCCC3)CC1	1	i	i	i	2
CCOc1nc(C#N)nc(N2CCCCC2)n1	7	/	/	/	-6
CC(=O)NCCc1csc(-c2ccccc2)n1	3	/	/	/	2
O=C(NCCCNC1CCCCC1)c1ccc(/C=N/O)nc1	3	i	i	i	-3
Cc1ccccc1C(=O)Nc1c(C(=O)N2CCCC2)cnn1-c1ccccc1	-2	i	i	i	-1
COCCNC(=O)Cn1ncc2ccsc2c1=O	11	/	/	/	-2
CCOc1ccc(C2C(C#N)=C(N)Oc3cc(C)n(CCN(C)C)c(=O)c32)cc1OCC (stereo not drawn)	3	i	i	i	2
O=S(=O)(c1ccc2ccccc2c1)N1CCCCC1	-3	i	i	i	4
CC1CCN(CCCNC(=O)CN2CCN(Cc3ccc(Cl)cc3)C2=O)CC1	0	/	/	/	2
O=C(Nc1ccccc1)c1cccnc1N1CCOCC1	0	i	i	i	-2
CCN(Cc1cc2ccccc2[nH]c1=O)S(=O)(=O)c1ccccc1	8	i	i	i	7
Oc1ccc(N2CCN(C(c3ccncc3)c3nnnn3C3CCCC3)CC2)cc1 (stereo not drawn)	0	i	i	i	-5
COc1cc2c(cc1OC)C(C(=O)N1CCOCC1)C(c1cccs1)N(C)C2=O (stereo not drawn)	6	/	/	/	-7
Cn1c(C(=O)N2CCc3ccccc3C2)cc2c(=O)n3ccccc3nc21	1	/	/	/	-2
OC1C=CSc2nc3ccccc3n21 (stereo not drawn)	-4	i	i	i	1
Cc1ccccc1-c1noc(N)c1C#N	0	i	i	i	0
Cc1cc(Nc2ccc(Br)c(C)c2)n2nc(C)nc2n1	0	/	/	/	-2
Cc1nn(C)cc1C1C2=C(CC(C)(C)CC2=O)OC2=C1C(=O)CC(C)(C)C2	2	i	i	i	-2
CC(C)CCOP(=O)(c1ccc(N(C)C)cc1)C(O)c1ccccc1F (stereo not drawn)	0	/	/	/	6
COCCNS(=O)(=O)c1ccc(C2CNC(=O)C2)cc1 (stereo not drawn)	-4	/	/	/	-3
Cc1ccc(N(C(=O)C2CCCC2)C2C=CS(=O)(=O)C2)cc1C (stereo not drawn)	-3	/	/	/	-2
O=C(c1cccn2c(=O)c3ccccc3nc12)N1CCN(c2ccccn2)CC1	2	/	/	/	-10
Cc1csc(NC(=O)CCCSc2nc3ccccc3s2)n1	-1	i	i	i	-1
Cc1cc(CN2CCN(CCC#N)CC2)c(O)c(C2(C)CCCCC2)c1	6	i	i	i	0
CCn1c(C(=O)N2CCc3ccccc3C2)cc2sccc21	5	/	/	/	-8
CCCc1cc(C(=O)NC2CCCCC2)no1	4	/	/	/	0
Cc1ccc(Cl)cc1N1CCN(C(=O)COc2ccc(S(=O)(=O)NC(C)C)cc2)CC1	-2	/	/	/	7
CN1C(=O)CCC1(O)c1ccccc1 (stereo not drawn)	0	i	i	i	-4
CC(C)(C)OC(=O)N1CCC(C(=O)N2CCOCC2)CC1	-4	/	/	/	-8
CCOC(=O)c1cn(CC(=O)Nc2ccc(CC)cc2)nn1	0	/	/	/	-3
COc1cccc(CNC(=O)C(CCSC)NS(=O)(=O)c2ccc3c(c2)oc(=O)n3C)c1 (stereo not drawn)	0	/	/	/	6
CC12CCC(C(=O)N3CCCCC3)(CC1=O)C2(C)C (stereo not drawn)	4	i	i	i	-5
O=C(Nc1ccc2c(c1)OCO2)C(c1ccccc1)N1CCC2(CC1)OCCO2 (stereo not drawn)	4	i	i	i	-4
CC(=O)Nc1ccc(S(=O)(=O)n2cnc(C)c2)cc1	9	i	i	i	2
CCc1cc2c(=O)c(-c3nc4ccccc4[nH]3)coc2c(CN2CCC(C)CC2)c1O	-3	i	i	i	-1
Cc1ccc(-c2nc(CS(=O)CC(=O)NCCCN3CC(C)CC(C)C3)c(C)o2)cc1 (stereo not drawn)	0	/	/	/	-7
CCOC(=O)C1(C)NC(c2ccc(OC)c(OC)c2)C2C(=O)N(CC)C(=O)C21 (stereo not drawn)	5	i	i	i	-3
CCN1CCN(C(c2cccs2)C(C)NC(=O)c2cccnc2)CC1 (stereo not drawn)	-7	/	/	/	-6
CC(=O)C1=C(O)C(=O)N(CC(=O)O)C1c1ccccc1Cl (stereo not drawn)	-6	/	/	/	-1

The list goes on.
SMILES	FPRL1 ligand	VCAM-1 down	VCAM-1 imaging	VCAM-1 augmentation	FPR binder
C/C(=C(\C#N)C(=O)NCCCN1CCOCC1)N(C)C	-8	i	i	i	-3
CC1(C)NC(C)(C)C(O)(C(N)=O)C1=O (stereo not drawn)	4	/	/	/	2
Clc1ccc(-n2nnnc2Sc2ncnc3sccc23)cc1	5	i	i	i	0
CCOc1ccccc1CN1C(=O)c2ccccc2C1C(=O)NCC1CCCO1 (stereo not drawn)	-7	i	i	i	-7
Cc1ncoc1C(=O)Nc1nccs1	-3	/	/	/	0
C1=C(CCNc2ncnc3c2cnn3-c2ccccc2)CCCC1	-4	i	i	i	-6
CCOC(=O)c1[nH]c(C)c(C(=O)NCCCN2CCOCC2)c1C	0	/	/	/	-1

By substructure: the entries above containing bromine.
SMILES	FPRL1 ligand	VCAM-1 down	VCAM-1 imaging	VCAM-1 augmentation	FPR binder
Cc1cc(N2C(=O)C(=O)/C(=C(/O)c3ccc(Cl)cc3)C2c2cccc(Br)c2)no1 (stereo not drawn)	-2	/	/	/	3
O=C(NC1CCCCC1)c1ccc(Cn2cc(Br)cn2)o1	-2	/	/	/	-2
Cc1cc(Nc2ccc(Br)c(C)c2)n2nc(C)nc2n1	0	/	/	/	-2
